# NPYLR7 ag = activates Aedes aegypti NPYLR7 receptor; HEK293T NPYLR7/Galpha15, GCaMP6s calcium fluorescence; activation, % at 10 µM; actives 0.15% (n = 270,000); AID 1259423; in the data active means activation above about 40%;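 further: 0% = vehicle and 100% = reference agonist at the receptor; some compounds past the cut are filed as inactive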
# NPYLR7 ag max-min = also measured in NPYLR7 ag; calls as there; activation, %; measured here: Max-Min RFU normalised activation; some inactives read as strong as hits;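 span of the calcium signal over five minutes; 0% = vehicle and 100% = native peptide agonist; compound fluorescence can raise it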
# * = called active by the depositor; & = joins results of further samples. An excerpt, so the mix of outcomes need not match the whole.
Compound | NPYLR7 ag | NPYLR7 ag max-min
COc1ccc(-n2nc(C(=O)NCc3cccnc3)c(=O)n(Cc3cccc(F)c3)c2=O)cc1OC | -5 | -5
O=S(=O)(Nc1ncccn1)c1ccc(NC(=S)Nc2cccnc2)cc1 | 5 | 0
CCCCC(=O)Oc1cc(C)[nH]c(=O)c1[N+](=O)[O-] | 1 | 0
O=C(c1cnc(NCC(O)c2ccc(F)cc2)c(Cl)c1)N1CCOCC1 (stereo not drawn) | 3 | 0
COC(=O)C1C(c2ccccc2)C(C(=O)OC)S(=O)(=O)CS1(=O)=O (stereo not drawn) | 3 | 3
Cc1cccc(-c2nnc(NC(=O)C(NC(=O)c3cc(C(F)(F)F)cc(C(F)(F)F)c3)C(C)C)s2)c1 (stereo not drawn) | -1 | 5
CN(CCc1cnn(C)c1)C(=O)c1cc(NC(=O)c2ccccc2)cc2ncn(C3CCCC3)c12 | 14 | 1
COc1ccc(CN(Cc2ccco2)C(=O)C2CCC2)cc1OS(=O)(=O)c1ccc(NC(C)=O)cc1 | 1 | 12
O=C(Cc1c(F)cccc1F)N1CCOC(COCc2cccc(C(F)(F)F)c2)C1 (stereo not drawn) | 18 | 15
Cn1cnc(S(=O)(=O)N2CCC(n3cncn3)CC2)c1Cl | 15 | 10
CC(C)Cc1nc(-c2ccc(CN3CCN(C(=O)c4cccc(F)c4F)CC3)cc2)no1 | 4 | 6
Cc1cc(C)c(-c2csc(NC(=O)c3ccccn3)n2)c(C)c1 | 2 | 17
O=c1[nH]c(CCl)nc2sc3c(c12)CCCC3 | 18 | 28
CSc1ccc(NC(=O)CN(C)Cc2ccc3c(c2)OCO3)cc1 | 14 | 5
Cc1ccc(Nc2nccc(N(C)c3ccc4c(C)n(C)nc4c3)n2)cc1S(N)(=O)=O | 0&-11 | -11&-16
COc1cccc(-n2c(O)c(C=Nc3cc(OC)ccc3OC)c3ccccc3c2=O)c1 | 52* | 40*
CCCCCCCCCCCCCCCC[N+](C)(C)C | -3&3 | -7&-7
N=C1SCC(=O)N1c1ncc(Cc2ccc(Cl)cc2Cl)s1 | 3 | 0
COc1ccc2nc(N3CCCCC3)[nH]c2c1 | 0 | -2
CC(C)(O)C#Cc1ccc(C(=O)N2CCCC(C(=O)c3ccc4c(c3)OCO4)C2)o1 (stereo not drawn) | 4 | 0
O=C(Cn1ccnc1)N1CCOC(COCc2cccc(C(F)(F)F)c2)C1 (stereo not drawn) | 25 | 17
CN(C1CCCCC1)S(=O)(=O)c1ccc(Br)cc1Cl | 0 | 2
O=C1N(CCc2ccccc2)C[C@@H]2C[C@@H](c3cccc4cnccc34)N3CCC[C@@]123 | 0 | -2
CC(C)OCC(O)CN(Cc1cccc(Cl)c1)CC1CC(c2ccc(F)cc2)=NO1 (stereo not drawn) | -2 | 1
CCc1cc2c(=O)n(Cc3ccco3)c(SCC(=O)NC3CCCC3)nc2s1 | 0 | -1
O=C(COc1cc(Cl)ccc1Cl)NC(=O)Cc1ccccc1 | 14 | 11
CC(=O)c1sc(=Nc2ccc(C)c(C)c2)n(CCCO)c1C | -3 | -8
COc1ccc(N2CCN(Cn3nnn(-c4ccc(OC)cc4)c3=S)CC2)cc1 | 1 | -1
Nc1c(NCC2CCCO2)c(=O)[nH]c(=O)n1Cc1ccccc1 (stereo not drawn) | 1 | 1
CC1=CC(=O)OC2C=C(OCCCCCCOC3=CC4OC(=O)C=C(C)C4C=C3)C=CC12 (stereo not drawn) | -6 | -9
Cc1ccc(CN(Cc2ccc(F)cc2)C(=O)CN(Cc2ccco2)C(=O)Nc2ccccc2)s1 | 1 | 10
Cc1cccc(C(=O)NC(C(=O)N2CCCC2)C2CCN(C(=O)c3ccc(F)cc3)CC2)c1 (stereo not drawn) | -3 | 4
CN1CCC2(CC1)N=C(c1ccc(F)cc1)C(=S)N2C(=O)c1cccc(F)c1 | 1 | 16
Cc1nc(C2CCCN(C(=O)c3cn(CC(N)=O)nn3)C2)sc1C (stereo not drawn) | 8 | 6
Cc1ccc(NC2CCN(C(=O)c3c(C)nn(C)c3Cl)CC2)nn1 | 7 | 2
COC(=O)C1=C(C)NC(C)=C(C(=O)OCC(C)C)C1c1ccccc1[N+](=O)[O-] (stereo not drawn) | -6&-1 | -11&-7
Cc1cc(COc2ccccc2)oc1C(=O)N1CC(n2cccn2)C1 | 24 | 10
CCc1sc(-c2nnc(CN3CCNC(=O)C3)o2)cc1C | 4 | 0
CCOc1cc(S(=O)(=O)N2CCC(C(N)=O)CC2)ccc1Br | 1 | 1
Cc1cc(C)c(NC(=O)CN2CCN(c3nccs3)CC2)c(Cl)c1 | 1 | 1
O=C(c1cccc(Cl)c1)N1CCN(c2cc(Oc3ccc(F)c(Cl)c3)ncn2)CC1 | -10 | 1
COc1ccc(OC)c(-c2ccc(=O)n(CC(N)=O)n2)c1 | 16 | 12
COc1ncc(-c2c(-c3ccccc3)ncn2CCCC2CCOC2)cn1 (stereo not drawn) | 1 | -1
CCCCOc1ccc(/C=C2\N=C(c3cccs3)OC2=O)cc1 | 2 | -1
CCN(CC)C(=O)Oc1ccc2c(ccn2Cc2cc(Cl)ccc2Cl)c1-c1ccc(OC)c(OC)c1 | 20 | 4
FC(F)(F)c1cccc(CSc2ncnc3ccccc23)c1 | 3 | 1
COC(=O)c1cc2ccsc2n1Cc1cc(=O)n2ccccc2n1 | 2 | 3
Cc1ccc(OCCN(C)C(=O)CC2C(=O)NCCN2C2CCCC2)cc1 (stereo not drawn) | -4 | -5

# Continued; it opens with the two that closed the last part.
Compound | NPYLR7 ag | NPYLR7 ag max-min
COC(=O)c1cc2ccsc2n1Cc1cc(=O)n2ccccc2n1 | 2 | 3
Cc1ccc(OCCN(C)C(=O)CC2C(=O)NCCN2C2CCCC2)cc1 (stereo not drawn) | -4 | -5
COC(=O)C1=C(O)/C(=C\c2ccccn2)SC1=Nc1cccc([N+](=O)[O-])c1 | -6 | -6
COc1ccccc1-c1nn(-c2ccc(C)cc2)c(OC(C)=O)c1-c1ccc(NC(=O)C(C)C)cc1 | -2 | 6
CCc1cccc(NC(=O)CNC(=O)c2ccc(Br)o2)c1 | 4 | 2
O=C(Nc1cc2c(cc1Cl)OCCO2)N(CC1CCOC1)C1CC1 (stereo not drawn) | 4 | 2
COc1ccc(-c2ccc(=O)n(CCCNS(=O)(=O)c3cccnc3)n2)cc1 | 0 | -2
CCN(CC)c1cc(C)nc(Nc2ccc(NC(=O)CC(C)C)cc2)n1 | 1 | -2
O=C(N=Nc1c(O)[nH]c2ccccc12)c1cc(-c2ccccc2)n[nH]1 | -2 | -8
O=C(O)c1cccc(=O)n1CCOc1ccccc1Cl | 6 | 5
Cc1nc(-c2ccccc2)nc(N2CCN(C(=O)NC(C)C)CC2)c1Cc1ccc(Cl)cc1 | 6 | 8
Cc1cccc(-c2nc3scc(CCNS(=O)(=O)c4cc(Cl)ccc4Cl)n3n2)c1 | -7 | -8
COC(=O)Nc1ccc2c(c1)C(=O)N(C)c1cc(C)ccc1O2 | 10 | 5
CN(C)c1ccc(/C=C2\SC(=S)N(NC(=O)c3ccc(Cl)cc3)C2=O)cc1 | -7 | -11
Cc1ccnc(SCCCn2c(N(C)Cc3ccccc3)nc3c2c(=O)[nH]c(=O)n3C)n1 | 0 | 15
Cc1cccc(C(=O)NCc2ccccc2N2CCOCC2)c1O | -1 | -5
Cc1ccc(-c2ccnc(-c3cccc(CN)c3)n2)c(C)n1 | -3 | -3
Fc1ccccc1-c1cnnc(NC2CCCN(Cc3ccccc3)C2)n1 (stereo not drawn) | 3 | -1
CCOC(=O)c1ccc(-n2c(-c3ccco3)nc3nc4ccccc4nc32)cc1 | 3 | -7
FC(F)(F)c1ccc(-c2nc(CSc3nc4cc(Cl)ccc4o3)cs2)cc1 | 0 | -6
COc1cc(F)ccc1CN1CCC(C(=O)Nc2ccc(Oc3ccccc3)nc2)CC1 | 31&-3 | 25&-3
CCCC(C)NC(=O)c1cnn(-c2ccc(OC)nn2)c1CC (stereo not drawn) | -12 | -12
COc1ccc2c(c1)CCCC2NCc1ccccc1 (stereo not drawn) | 0 | -2
CCCNC(=O)C1(C)CCN(CCC(=O)c2ccc(F)cc2)C1 (stereo not drawn) | 0 | 1
NC(=O)c1cccc(Nc2nc(C(N)Cc3ccc(C(F)(F)F)cc3)cs2)n1 (stereo not drawn) | -3 | -9
CCOC(=O)c1cc2c(=O)n3ccccc3nc2n(CCCOC(C)C)c1=O | -2 | 3

# Quoted from the listing.
# `Cc1cccc(C(=O)NCc2ccccc2N2CCOCC2)c1O` @ NPYLR7 ag: -1
# `O=C(Cn1ccnc1)N1CCOC(COCc2cccc(C(F)(F)F)c2)C1` (stereo not drawn) @ NPYLR7 ag max-min: 17

# The results go on:
Compound | NPYLR7 ag | NPYLR7 ag max-min
CC(C)S(=O)(=O)NC(=O)C1(C)CCN1C(=O)C1(c2ccc(Cl)cc2)CC1 (stereo not drawn) | 3 | 3
[O-][n+]1onc2c1CCc1c-2nc(-c2ccccc2)n1O | -15 | -23
COc1c(F)ccc(C(=O)N(C)Cc2ncc[nH]2)c1F | 20 | 10
COc1ccc(S(=O)(=O)NCc2ccc(CN3CCC(C)CC3)cc2)cc1OC | 4 | 2
CCc1ccc(S(=O)(=O)Oc2c(Br)cc(Br)c3cccnc23)cc1 | -5 | 1
Cc1cccc(C)c1N1C(C(=O)OC(C)(C)C)=C(O)c2ccccc2S1(=O)=O | 1 | 7
CCS(=O)C1CCCC(NCc2sccc2C)C1 (stereo not drawn) | 4 | 3
CC(C)CN(CCC(=O)NCc1ccccc1)c1nc(-c2ccco2)nc2cc(Cl)ccc12 | 16 | 11
CCN(Cc1ccc(Cl)s1)C(=O)Cn1nnc(-c2ccccc2)n1 | 6 | 4
O=C(c1ccc(Br)cc1)N(Cc1cccc(OS(=O)(=O)c2cccc(C(F)(F)F)c2)c1)Cc1ccco1 | -10 | -14
CC(=O)O[C@@H](C)C(=O)N1CCN(c2nccc(-c3cccc(C(F)(F)F)c3)n2)CC1 | 4 | 1
CC(Cn1ccnc1)NCc1cccc(-n2cccn2)c1 (stereo not drawn) | 1 | 1
c1ccc2c(c1)oc1c(NC3CCCCC3)ncnc12 | 2 | 5
COc1ccc(C(=O)N2CCC3(CC2)C(=O)N(CC(=O)NC(C)c2ccccc2)CN3c2ccccc2)c(OC)c1 (stereo not drawn) | 24 | 26
CCOC(=O)C1(C)CCN1C(=O)c1sccc1C (stereo not drawn) | 1 | -4
CCCNC(=O)Cn1cc(OC)c(=O)cc1CN1CCN(c2ccc(F)cc2)CC1 | -1 | -1
COCCCN(CC(=O)N(CCc1ccc(OC)c(OC)c1)Cc1sccc1C)C(=O)NCc1ccccc1 | -6 | 1
Cc1nn(-c2ccc(Cl)nn2)c2c1C(c1ccccc1C(F)(F)F)CC(=O)N2 (stereo not drawn) | -2 | -5
COC(=O)c1ccc(-c2nc(CN3CCCN(C(=O)c4ccco4)CC3)c(C)o2)cc1 | -10 | -16
CCOC(=O)CSc1nc2c(-c3ccccc3)c[nH]c2c(=O)n1Cc1ccccc1OC | 3 | 3
CCCNC(=O)CCNC(=O)C1CC(c2ccc(Cl)cc2)=NO1 (stereo not drawn) | -4 | -1
COc1cc(OC)cc(C(=O)Nc2ccc(F)c(-c3nnc4n3CCCCC4)c2)c1 | 0 | -7
CCn1cc(C(=O)N2CCc3c([nH]c4ccccc34)C2)c(C)n1 | 4 | -1
COc1ccc2c(-c3cc4cc(Br)ccc4o3)cc(=O)oc2c1 | 2 | -2

# Structural class: the compounds so far containing bromine.
Compound | NPYLR7 ag | NPYLR7 ag max-min
CN(C1CCCCC1)S(=O)(=O)c1ccc(Br)cc1Cl | 0 | 2
CCOc1cc(S(=O)(=O)N2CCC(C(N)=O)CC2)ccc1Br | 1 | 1
CCc1cccc(NC(=O)CNC(=O)c2ccc(Br)o2)c1 | 4 | 2
CCc1ccc(S(=O)(=O)Oc2c(Br)cc(Br)c3cccnc23)cc1 | -5 | 1
O=C(c1ccc(Br)cc1)N(Cc1cccc(OS(=O)(=O)c2cccc(C(F)(F)F)c2)c1)Cc1ccco1 | -10 | -14
COc1ccc2c(-c3cc4cc(Br)ccc4o3)cc(=O)oc2c1 | 2 | -2

# Additional results follow:
Compound | NPYLR7 ag | NPYLR7 ag max-min
N#CC1C(=O)Nc2c(cnn2C2CCCC2)C12CCCCC2 (stereo not drawn) | 2 | 10
O=C(OC1CCCCC1=O)c1ccc(NS(=O)(=O)c2ccc(F)cc2)cc1 (stereo not drawn) | 1 | 2
Cc1nn(C2CCS(=O)(=O)C2)c2nc(-c3ccccc3)cc(C(=O)NCCC3=CCCCC3)c12 (stereo not drawn) | 3 | 8
OC(CNCc1ccccc1)c1ccsc1 (stereo not drawn) | -2 | 22
Cc1cccnc1CN1CCN(Cc2cc3n(n2)CCNC3)CC1 | 2 | 4
O=C(C1CC1)N(Cc1nccn1Cc1ccccc1Cl)CC1CC1 | 5 | 11
CC(c1ccc2c(c1)OCCO2)N(C)C(=O)c1cc2n(n1)CCCN(C)C2 (stereo not drawn) | 9 | 8
Cc1ccc(S(=O)(=O)CCC(=O)Nc2ccc(Br)cc2)c(C)c1 | 0 | 11
c1ccc2c(c1)nc(NC1CCCC1)c1nncn12 | 3 | 2
COc1ccc(NC(=O)N(CC(=O)N(Cc2ccc(F)cc2)Cc2cccs2)C2CCCCC2)cc1 | -7 | -6
C#CCOC(=O)CN1CCOCC1 | 2 | 5
Cc1ccc(C(C)C)c(OC(C)C(=O)N2CCN(c3nc(C)ns3)CC2)c1 (stereo not drawn) | 1 | 0
Cc1cc(C)n2c(SCC(=O)c3c(N)n(C4CC4)c(=O)[nH]c3=O)nnc2n1 | 3 | 4
O=C1/C(=C/c2ccco2)SC(=S)N1C1CCS(=O)(=O)C1 (stereo not drawn) | 4 | 11
O=C1c2cccc3c([N+](=O)[O-])ccc(c23)C(=O)N1/N=C\c1cccc([N+](=O)[O-])c1 | 0 | -5
CN(Cc1nc(-c2cccc(Cl)c2)no1)C1CCCCC1 | 0 | -4
O=C(c1cn[nH]c1-c1ccccc1F)N1CCC2(CCCO2)CC1 | 8 | 6
O=C(C1CCCN(C2CCN(c3ncnc4nc[nH]c34)CC2)C1)N1CCOCC1 (stereo not drawn) | 6 | 1
Cc1ccnc(NCCn2cc(C3CC=CCC3)nn2)c1 (stereo not drawn) | 8&5 | -1&1
